# Mtb H37Rv: Mycobacterium tuberculosis H37Rv growth inhibition, cell based, confirmatory dose response (AID 1949) | inhibition, % at 10 µg/mL; hits with a dose series show IC50 in µg/mL | most inactive calls were filed without a number and no value below 0 was filed | 1.6% of 100,000 active;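 active means confirmed in a dose series; inconclusive means about 50% or more but not retested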;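 further: bacteria grown 7 days with compound before Alamar blue readout; 0% = untreated bacteria and 100% = reference antibiotic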
# Numbers without * were called inactive; i = inactive; ? = inconclusive. The list is partial (hit frequency here may not be typical).
Compound,Mtb H37Rv
CN(C)S(=O)(=O)Nc1cnc2ccccc2c1,10.1%
O=C(Nc1ccc2ccccc2c1)c1c(Cl)cccc1Cl,i
CS(=O)(=O)N(CC(=O)N1CCN(Cc2ccccc2)CC1)c1ccc(Oc2ccccc2)cc1,i
O=C(CSCc1c(Cl)cccc1Cl)Nc1ccc(S(=O)(=O)N2CCOCC2)cc1,0.4%
COc1ccc(S(=O)(=O)Nc2ccc(S(=O)(=O)Nc3ccccc3C)cc2)cc1,i
COC(=O)c1c(NC(=O)c2csc(C)c2C)sc(C(=O)Nc2ccccc2C)c1C,i
Cc1c(C(=O)Nn2cnnc2)oc2ccccc12,i
CC(=O)Nc1ccc(S(=O)(=O)Nc2c(C)nn(-c3ccccc3)c2C)cc1,i
CCc1c(C)c2cc3c(C)coc3c(C)c2oc1=O,1.4%
O=S(=O)(NCCSC1CCCCC1)c1ccc(Br)cc1,4.9%
COC(=O)CN(c1ccc(C)c(C)c1)S(=O)(=O)c1ccccc1,i
O=C(Cc1ccc(Cl)cc1)Nc1ccc(C(=O)Nc2ccccc2C(=O)O)cc1,7.0%
COc1ccc(CN2CCN(S(C)(=O)=O)CC2)cc1OCc1ccccc1,i
Cc1ccc(NS(=O)(=O)c2cc3c4c(cccc4c2)C(=O)NC3=O)cc1,i
CCOC(=O)N1CCN(C(=O)c2ccc(N(C)S(=O)(=O)c3ccc(Cl)cc3)cc2)CC1,i
C=CCc1cccc(C)c1OCCCCNCCN,i
CC(=O)N(Cc1ccccc1)Cc1cn(-c2ccccc2)nc1-c1ccc2ccccc2c1,38.9%
N#Cc1cnn(Cc2ccccc2)c1/N=C/N1CCOCC1,i
c1ccc(-c2cc(-c3nc(-c4cccnc4)no3)c3ccccc3n2)cc1,i
Cc1cc(Cl)c(OCCN2CCCCCC2)c(Br)c1,i
Cc1cc(C)cc(C(=O)N2CCC(C(N)=O)CC2)c1,i
O=C(Nc1ccccc1Cl)c1cccc2c(Br)cccc12,i
CCc1nc2c([nH]1)C(c1cc(Br)co1)C(C#N)=C(N)S2 (stereo not drawn),i
CCOC(=O)C1=C(C)Nc2ncnn2C1c1cccnc1 (stereo not drawn),i
CC(=O)N/C(=N/c1nc(C)cc(C)n1)Nc1cccc(Cl)c1,i
Cc1cccc(Nc2ncnc3ccc(Br)cc23)c1,11.0%
O=C(CN(Cc1ccc(Cl)cc1Cl)S(=O)(=O)c1ccc(Cl)cc1)NCc1ccco1,i
COC(=O)COc1ccc(S(=O)(=O)Nc2cc(C)cc(C)c2)cc1Cl,i
CC(C)OCC(O)CN1CCCCC1 (stereo not drawn),i
Cc1ccc(S(=O)(=O)c2cc3c(=O)n4cc(C)ccc4nc3n(C3CCCC3)c2=N)cc1,1.9%

Compound,Mtb H37Rv
O=C(C1=C(O)C(=O)N(CCN2CCOCC2)C1c1ccccc1)c1ccco1 (stereo not drawn),i
COc1cccc(NC(=O)CN2CCCC2)c1,i
COC(=O)Cc1ccc(NC(=S)N2CCN(Cc3ccc4c(c3)OCO4)CC2)cc1,i
CN(Cc1cnn(C)c1)C(=O)c1sc2cccc(Cl)c2c1Cl,i
CN1CCN(CC(O)COC(c2ccccc2)c2ccccc2)CC1 (stereo not drawn),i
O=S(=O)(c1ccccc1)N1CCN(CC(O)COc2ccc3c(c2)CCC3)CC1 (stereo not drawn),i
COc1ccc(-c2csc(NC(=O)c3ccc(Cl)s3)n2)cc1,i
COc1ccc(C(C)C)cc1S(=O)(=O)Nc1cccc(Cl)c1Cl,i
O=C(O)CCSc1cc(-c2ccccc2)nc(SCCC(=O)O)n1,i
O=S(=O)(c1ccc(C2CCCCC2)cc1)N1CCN(c2ncccn2)CC1,i
NS(=O)(=O)c1ccc(NC(=S)Nc2ccc(I)cc2)cc1,i
COc1ccc2cc(C=O)c(N3CCOCC3)nc2c1,2.7%
CC(=O)NC(=S)Nc1ccc(NC(=S)NC(=O)C(C)C)cc1,i
CCOC(=O)C1=C(C)NC(=O)NC1c1cccc(OC)c1OCc1ccccc1Cl (stereo not drawn),i
CC1CN(CCCSc2ccc(Cl)cc2)CC(C)O1 (stereo not drawn),0.5%
Cc1sc(NC(=O)c2cc3ccccc3o2)c(C#N)c1C,i
CC(C)C(C(=O)Nc1ccccc1F)N1C(=O)c2ccccc2C1=O (stereo not drawn),i
CCOc1cc(C=O)ccc1OC(=O)c1cccc(OC)c1,25.8%
CSc1ccccc1NC(=O)Cn1c(-c2cscn2)nc2ccccc21,i
CCCOc1ccc(NC(=O)c2c(-c3ccccc3)noc2C)cc1,i
Cc1c(Cl)cccc1N1CC(C(=O)Nc2ccccc2I)CC1=O (stereo not drawn),i
O=C(CC1(O)C(=O)N(Cc2ccccc2)c2ccccc21)c1ccc(Cl)s1 (stereo not drawn),i
O=C(NC(=S)Nc1cccc(-c2nc3cc(Cl)cc(Cl)c3o2)c1)c1ccco1,9.6%
C=CCn1c(COc2ccc(C(C)C)cc2)nnc1SCC(=O)Nc1cccc(C(=O)O)c1,4.2%
COc1ccc(-c2nn(-c3ccccc3)cc2C=O)cc1OC,i
CC(=O)c1c(C)oc2c1cc(NS(=O)(=O)c1cccs1)c1ccccc12,i
COc1ccccc1-c1coc2cc(OCc3cccc(C)c3)ccc2c1=O,19.9%
C=CCN1C(=O)N(c2ccc(Cl)cc2)C(=O)C1CC(=O)Nc1ccc(Cl)cc1 (stereo not drawn),36.6%
CCOC(=O)c1c(NC(=O)CN(CC)CC)sc2c1CCC(C)C2 (stereo not drawn),37.6%
Cc1ccc(S(=O)(=O)N(C)c2ccc(C(=O)NC(C)c3ccccc3)cc2)cc1 (stereo not drawn),i

Compound,Mtb H37Rv
CC(=O)c1c(C)n(CC(=O)NCc2ccco2)c2ccccc12,0.3%
O=C(c1cccc(F)c1F)N1CCc2ccccc2C1,i
CCSc1ncc(Cl)c(C(=O)Nc2ccccc2C(F)(F)F)n1,i
OCCCNCc1cccc(Br)c1,10.4%
CC(C)(C)C(=O)N1CCN(c2ccc([N+](=O)[O-])c(NCc3cccnc3)c2)CC1,0.9%
COC(=O)c1ccc2c(=O)n(-c3ccccc3)c(SCC(=O)Nc3ccccc3)nc2c1,i
O=C(NCCN1CCOCC1)C(=O)Nc1cccc(F)c1,i
N#Cc1cccc(COc2ccc(Br)cc2)c1,i
COc1ccccc1OCCCC(=O)Oc1ccc(-c2ccccc2)cc1,i
CCOc1ccc(NC(=O)Nc2cc(OC)c(OC)c(OC)c2)cc1,i
CCOC(=O)c1csc(CC#N)n1,i
O=c1c2cc(I)ccc2nc(/C=C/c2cccnc2)n1-c1ccccc1Cl,0.4%
Cc1cc(C)n(-c2cc(N3CCN(S(=O)(=O)c4ccc(Cl)cc4)CC3)ccc2[N+](=O)[O-])n1,5.1%
COc1ccc(Cl)cc1NC(=O)c1cc(Br)ccc1OC,i
Cc1noc(C)c1C(=O)N1CCN(C(=O)c2sc3cc(Cl)ccc3c2Cl)CC1,i
NC(=O)c1cn(-c2ccccc2)nc1-c1ccc(-c2ccccc2)cc1,0.9%
COC(=O)c1c(NC(=S)Nc2ccc(S(=O)(=O)Nc3cc(OC)nc(OC)n3)cc2)sc(C(=O)N(C)C)c1C,i
COc1cc(C)c(C)cc1S(=O)(=O)N1CCCC1,i
CCOc1ccc(S(=O)(=O)N(CC(=O)Nc2ccccc2C(C)C)c2ccccc2)cc1,i
Nc1ncnc2ncc3c4ccccc4[nH]c3c12,0.3%
O=C(NCc1ccccc1)c1ccc(COCC(F)(F)F)o1,i
C=CCNC(=O)Cc1c(C)n(C(=O)c2ccc(Cl)cc2)c2ccc(OC)cc12,1.5%
O=C(Nc1ccc(CN2CCOCC2)cc1)c1ccc(-c2cc(Cl)ccc2Cl)o1,?
CCc1ccccc1N(CC(=O)Nc1ccccc1C(=O)NC(C)C)S(=O)(=O)c1ccccc1,i
Cn1c(SCC(=O)Nc2ccc(N3CCOCC3)c(Cl)c2)nnc1C(O)c1ccccc1 (stereo not drawn),3.2%
CCn1c(C)nc2cc(S(N)(=O)=O)ccc21,2.6%
CSc1nc2c(c(=O)[nH]1)C(c1cccnc1)C1=C(CCCC1=O)N2 (stereo not drawn),i
CC(C)C1Cc2c(sc3c2c(=O)n(CCc2ccccc2)c2n[nH]c(=S)n32)CO1 (stereo not drawn),i
Cc1c(NC(=O)c2ccccc2SCc2ccccc2)c(=O)n(-c2ccccc2)n1C,i
O=C(CN1C(=O)/C(=C2\SC(N3CCOCC3)=NC2=O)c2ccccc21)Nc1cccc(Br)c1,5.0%

# Quoted from the entries so far for reference:
Compound,Mtb H37Rv
CN(C)S(=O)(=O)Nc1cnc2ccccc2c1,10.1%
O=C(Nc1ccc2ccccc2c1)c1c(Cl)cccc1Cl,i

# Next section:
Compound,Mtb H37Rv
O=C(CCc1ccccc1)Nc1nnc(SCc2ccccc2)s1,i
O=C1CCCCC1Oc1cc(O)c2c(=O)cc(-c3ccccc3)oc2c1 (stereo not drawn),3.1%
COc1cc(CO)ccc1OCC(=O)Nc1ccc(C)cc1,i
COc1ccc(CCCc2n[nH]c(=S)o2)cc1,1.7%
O=C(O)CSc1ccc(Oc2ccc(SCC(=O)O)cc2)cc1,i
O=C(NCc1ccccc1)C(=O)NCc1cccnc1,i
CCc1cccc(CC)c1NC(=O)CN(c1ccc(Oc2ccccc2)cc1)S(C)(=O)=O,i
Cc1sc2ncnc(SCC(=O)NCc3ccccc3)c2c1C,i
O=C(c1cc(-c2ccc3c(c2)OCO3)nc2ccccc12)N1CCN(c2cccc(Cl)c2)CC1,4.6%
COC(=O)C1=C(C(=O)OC)SC(=C2C(=S)C(C)(C)N3C(=O)C(=O)c4c(C)c(C)cc2c43)S1,i
Cc1ccccc1C(=O)Nc1ccccc1C(=O)NC(C)c1ccccc1 (stereo not drawn),4.0%
CCc1c(O)nc(SCC(=O)Nc2nc3ccccc3s2)n(-c2ccccc2)c1=O,i
Cc1ccc(CNC(=O)c2ccc3c(=O)n(CCC4=CCCCC4)c(=S)[nH]c3c2)cc1,i
CC1=C(C(=O)Nc2cc(C)ccc2C)C(c2cccc(Br)c2)NC(=S)N1 (stereo not drawn),i
COc1ccc(NC(=O)N2CCCCCC2)cc1OC,i
CCOc1ccccc1-c1nnc(SCC(=O)O)n1-c1ccccc1,i
O=C(O)c1cc2cc(Cl)cc(Br)c2o1,i
CCc1ccccc1OCC(=O)Nc1cc(OC)ccc1OC,i
NC(=O)COc1ccc2c3c(c(=O)oc2c1)CCCCC3,i
CN(C)C(=O)c1ccc(-n2cnc3ccccc3c2=O)cc1,i
CCCn1cc(NC(=O)C2CC(c3cccc(Br)c3)=NO2)cn1 (stereo not drawn),i
O=C(Nc1cccc(F)c1)C1CCN(C(=O)c2ccc(Cl)cc2)CC1,i
Cc1ccc(-c2n[nH]c(=S)n2N=C/C=C\c2ccccc2[N+](=O)[O-])cc1,0.6%
Cc1oc(-c2ccc(Cl)cc2)cc1-c1nn2c(-c3ccoc3C)nnc2s1,i
COc1ccc(S(=O)(=O)N(C)CC(=O)Nc2ccc(F)c(Cl)c2)cc1OC,i
COc1cc(C)c(Cl)cc1S(=O)(=O)N1CCCC1,i
CS(=O)(=O)N1CCN(c2ccccc2NC(=O)c2cccnc2)CC1,i
O=C(CSc1nc2ccccc2c(=O)n1C1CCCC1)c1ccc(F)cc1,2.2%
O=C(NC(c1ccc2c(c1)OCO2)c1cc([N+](=O)[O-])c2cccnc2c1O)C1CCCCC1 (stereo not drawn),7.2%
CCn1c(/C=C/c2ccc(F)cc2)nc2ccccc21,8.17µg/mL*

# The list goes on (4 carried over from the part before).
Compound,Mtb H37Rv
CS(=O)(=O)N1CCN(c2ccccc2NC(=O)c2cccnc2)CC1,i
O=C(CSc1nc2ccccc2c(=O)n1C1CCCC1)c1ccc(F)cc1,2.2%
O=C(NC(c1ccc2c(c1)OCO2)c1cc([N+](=O)[O-])c2cccnc2c1O)C1CCCCC1 (stereo not drawn),7.2%
CCn1c(/C=C/c2ccc(F)cc2)nc2ccccc21,8.17µg/mL*
O=C(NN1C(=O)C2C3C=CC(C3)C2C1=O)C1CC=CCC1 (stereo not drawn),i
CC(=O)Nc1ccccc1C(=O)OCc1ccc(I)cc1,i
Cc1ccc(C2=CC(c3c(F)cccc3Cl)n3nnnc3N2)cc1 (stereo not drawn),2.8%
CC(C)Cc1nnc(NC(=O)Cc2ccc([N+](=O)[O-])cc2)s1,i
CC(=O)C(C)Oc1cccc2c1ccc1c3c(c(=O)oc12)CCCC3 (stereo not drawn),43.1%
COCc1nnc(NC(=O)CC(c2ccccc2)c2ccccc2)s1,i
O=C(NNS(=O)(=O)c1ccc(F)cc1)NC1CCCCC1,i
Cc1ccccc1C(=O)NC1CCCC1,2.6%
COc1ccc(C(=O)N2CCN(C3CCCCC3)CC2)c(OC)c1,i
O=C(Nc1cccc(Cl)c1Cl)c1ccccc1,i
COc1ccc(S(=O)(=O)N(CC(=O)Nc2ccc3c(c2)OCO3)Cc2ccccc2)cc1Cl,i
Cc1ccc(-c2nc3cc(NC(=S)NC(=O)c4ccc(C)c([N+](=O)[O-])c4)ccc3o2)cc1C,i
Cn1nnnc1NCc1cccc(Cl)c1,i
Cc1ccc(C(C)C)cc1OCC(O)Cn1cnc2ccccc21 (stereo not drawn),39.0%

# 3 compounds out of the list, sorted by formula weight, rising.
Compound,Mtb H37Rv
Cn1nnnc1NCc1cccc(Cl)c1,i
O=C(Nc1cccc(Cl)c1Cl)c1ccccc1,i
CC(=O)C(C)Oc1cccc2c1ccc1c3c(c(=O)oc12)CCCC3 (stereo not drawn),43.1%
